Screening results: PubChem, National Center for Advancing Translational Sciences (NCATS)
HPGD inh – inhibitors of human 15-hydroxyprostaglandin dehydrogenase (HPGD); P15428; purified HPGD, NADH fluorescence kinetic, PGE2 substrate; Potency, µM, for inactives: at the highest dose activity change, negative = inhibition, hits mostly inhibitors; 150,000 tested, 4.3% active; active = well fitted inhibition curve with a large enough effect (not every such curve was filed as active); inconclusive = small, poorly fitted or top-dose-only effect, or another doubt; inactive = no such curve, though single readings can be large or run the other way;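 also: top concentration of the series not given in the record; plate controls included wells without enzyme; inactives centre near -10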
Target sequence (P15428 whole entry, looked up): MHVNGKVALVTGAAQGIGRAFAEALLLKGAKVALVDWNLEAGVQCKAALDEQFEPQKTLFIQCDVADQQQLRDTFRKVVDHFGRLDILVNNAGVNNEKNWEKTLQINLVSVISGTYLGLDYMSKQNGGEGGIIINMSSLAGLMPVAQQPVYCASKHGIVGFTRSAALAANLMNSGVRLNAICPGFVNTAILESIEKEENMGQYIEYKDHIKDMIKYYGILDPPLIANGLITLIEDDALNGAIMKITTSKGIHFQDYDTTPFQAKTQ
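20 nM HPGD preincubated 15 min at room temperature with compound in 50 mM Tris-HCl pH 8, 0.01% Tween 20. Started with 1 mM NAD+ and 30 uM prostaglandin E2; NADH fluorescence (360/450 nm) read 5 times over 30-s intervals, last minus first.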
An asterisk follows results filed as active; ? = inconclusive; & = joins results of further samples; [ ] = remark or other dose. % is scaled to controls: 0 for no effect and ±100 for the full control effect; potency is read from the fitted curve at half-maximal effect. Some of the compounds tested; the hit share may differ from the screen's.

nr	SMILES	HPGD inh
1	O=C(CC1NCCNC1=O)OCCCc1ccccc1 (stereo unspecified)	-5%
2	CC1=C(C(=O)Nc2ccccc2)C(c2ccncc2)C(C#N)=C(SCC(=O)NC2CC2)N1 (stereo unspecified)	-3%
3	Cc1ccc(C(=O)c2ccc(N3CCN(C)CC3)c([N+](=O)[O-])c2)cc1	-7%
4	CN(C)C(=O)CSc1nc(SCC(=O)N(C)C)n(-c2ccccc2)n1	-8%
5	COc1cc(CCC(=O)OCC(=O)Nc2nc(C)c(Cl)cc2Cl)cc(OC)c1OC	-10%
6	O=C(CCn1nc(-c2ccc(Cl)cc2)ccc1=O)NCCCN1CCCCCC1	-14%
7	O=C(Cn1ncc2c(=O)oc3ccccc3c21)NCCCN1CCCC1=O	-15%
8	O=c1c2ccccc2nc(-c2ccccc2)n1Cc1ccco1	-18%
9	Cc1ccc2c(c1)[nH]c1c(N3CCN(Cc4ccccc4)CC3)ncnc12	?
10	CCOC(=O)c1cnc2c(C#N)c(C)nn2c1-c1ccccc1	-11%
11	CC(C)CCN(C(=O)CNC(=O)c1ccco1)C(C(=O)NC1CCCCC1)c1ccco1 (stereo unspecified)	-3%
12	COc1ccccc1-c1nnc(SCC(=O)N2CCC(C)CC2)o1	?
13	O=C(N1CCOCC1)C1(c2ccc(Cl)cc2)CCCC1	-8%
14	O=C1C2ON(c3ccccc3)C(c3cccnc3)C2C(=O)N1Cc1ccccc1 (stereo unspecified)	-12%
15	O=C(Nc1nc(-c2ccccc2)c(-c2ccccc2)s1)c1ccc(S(=O)(=O)N2CCCC2)cc1	?
16	O=S(=O)(c1ccccc1F)N(Cc1ccco1)Cc1nnc(-c2ccccc2Br)o1	25µM*
17	CC(=O)NNc1nc(-c2ccc(NC(C)=O)cc2)cs1	-22%
18	COc1ccc(CNC(=O)Oc2ccccc2)cc1Cl	-18%
19	CC(C)C(NC(=O)CSCc1ccc([N+](=O)[O-])cc1)C(C)C	10µM*
20	CCOC(=O)N1CCN(C(=O)CCCN2C(=O)CSc3nc(C)cc(C)c32)CC1	-14%
21	COc1ccccc1NC(C)C(=O)N/N=C/c1ccccc1OCc1cccc(Br)c1 (stereo unspecified)	-5%
22	COc1ccc(-c2c(C#N)c(N)nc3c2CCCCCC3)cc1OC	?
23	Cc1nc2c(ccc3nc(NC(=O)Cc4cccc5ccccc45)sc32)s1	-7%
24	CCCN(CCC)S(=O)(=O)c1ccc(C(=O)NNc2nc(-c3ccccc3)c3cc(Br)ccc3n2)cc1	-18%
25	O=C(Nc1ccc(F)cc1)OCCN1CCN(Cc2ccccc2)CCC1=O	-11%&-13%
26	Cc1ccc(-c2nc3ccccc3n3nnnc23)cc1	?
27	CCCCN(C)C(=O)C1CCN(CCCc2ccccc2)CC1	7%
28	CC(C)c1ccc(O)c(NC(=O)c2cccnc2)c1	-9%
29	Cc1ccc(C)c(NC(=O)CSc2nnc(Cc3cccn3C)n2-c2ccc(F)cc2)c1	-5%
30	COc1cc(OC)nc(-n2ncc(Br)c(Br)c2=O)n1	-1%
31	COc1ccc(C2=NN(CC(=O)NCc3ccco3)C(=O)CC2)cc1	-12%
32	Cc1ccc(-c2c(C(=O)NCc3ccc(F)cc3)oc(=O)c3ccccc23)cc1	-19%
33	CC(Sc1nnc(Nc2ccccc2)s1)C(=O)NC1CCCc2ccccc21 (stereo unspecified)	-26%
34	CN(C)c1ccc(NC(=O)COC(=O)CCC(=O)c2ccc(F)cc2)cc1	-21%
35	COc1ccc(-c2nc(-c3ccccc3)c(Nc3ccc4ccccc4c3)o2)cc1	-8%
36	COc1ccc(OC)c(NC(=O)CSc2nnc(CNc3ccc(C)cc3C)o2)c1	-14%
37	CCOC(=O)C1=C(C)c2ccccc2N(S(=O)(=O)C(F)(F)F)C1C(=O)OCC (stereo unspecified)	-2%
38	CCOC(=O)C1=C(c2ccccc2)NC(SCC(=O)Nc2ccccc2C)=C(C#N)C1c1ccco1 (stereo unspecified)	?
39	C=CCNC(=O)C(=O)c1c(-c2ccccc2)[nH]c2ccccc12	-1%
40	CCCS(=O)(=O)C(=C(Nc1ccc(OC)cc1)Nc1ccc(OC)cc1)S(=O)(=O)CCC	-8%
41	CSc1cccc(NC(=O)CN2C(=O)c3ccccc3S2(=O)=O)c1	-3%
42	CCOC1(OCC)C(c2ccc(N)cc2)C(C#N)(C#N)C1(OCC)OCC (stereo unspecified)	-14%
43	Cc1occc1-c1nnc(SCC(=O)N2CCN(c3ccc(F)cc3)CC2)n1C	-10%
44	Cc1ccc(/C=C/C(=O)Nc2ccc(Oc3ccccc3)cc2)o1	25µM*
45	O=C(N/N=C/c1cc(Br)ccc1O)C(=O)Nc1ccccc1OC(F)(F)C(F)F	1%
46	COC(=O)C(O)(NC(=O)NC(C)=O)C(F)(F)F (stereo unspecified)	-12%
47	CN1CCN(C(=O)c2cc3nc(-c4ccccc4)cc(-c4ccccc4)n3n2)CC1	?
48	CCC(Oc1ccccc1)C(=O)N1CCC(C(N)=O)CC1 (stereo unspecified)	-16%
49	COc1ccc(C)cc1NC(=O)c1nnn(Cc2cccc(F)c2)c1N	-17%
50	CC(C)CCN1C(=O)c2ccc(C(=O)NCC3CCCO3)cc2C1=O (stereo unspecified)	-16%
51	O=C(O)c1cc(C2CC2)nc2ccccc12	-1%&-12%
52	CCC(=O)c1cc2c(C)cc(=O)oc2c(C)c1OC	-17%
53	Cc1ccc(CSC2=Nc3ccccc3C3=NC(CC(=O)NCc4ccco4)C(=O)N23)cc1 (stereo unspecified)	-30%
54	Cc1ccc(Nc2nc(N)nc(CSCCO)n2)cc1	0%
55	CN1CCN(S(=O)(=O)c2cccc(C(=O)Nc3nc(-c4ccccc4)cs3)c2)CC1	?
56	O=C(NCC(=O)N(CC1CCCO1)C1(C(=O)NC2CCCC2)CCCCC1)c1ccccc1 (stereo unspecified)	-11%
57	Cc1cc(O)c2c(c1)C(=O)c1cc(O)cc(O)c1C2=O	-29%&-16%&-13%
58	CCc1ccccc1N(CC(=O)Nc1cccc(N(C)S(C)(=O)=O)c1)S(C)(=O)=O	1%
59	CCCCC(=O)Nc1ccc(C(=O)Nc2ccc(S(=O)(=O)Nc3nccc(C)n3)cc2)cc1	-16%
60	CCc1nnc(N2CCN(c3ncnc4c3oc3ccccc34)CC2)s1	-20%

(continued)
nr	SMILES	HPGD inh
61	COCC(=O)Nc1cccc(Br)c1	-20%
62	COCCCNC(=O)c1c(N)n(/N=C/c2cccs2)c2nc3ccccc3nc12	?
63	COc1ccc(-c2cc(C(F)(F)F)nc(SCCC(=O)NCc3ccccc3)n2)cc1	-22%
64	C=CCSCC1Nc2cc(Cl)c(S(N)(=O)=O)cc2S(=O)(=O)N1 (stereo unspecified)	?
65	O=C(CN1C(=O)C2C3C=CC(C3)C2C1=O)NCc1ccc2c(c1)OCO2 (stereo unspecified)	-4%
66	CC(NC(=O)/C=C/c1cnc2ccccc2n1)C12CC3CC(CC(C3)C1)C2 (stereo unspecified)	-1%
67	CN(C)c1ccc(/C=C/C(O)=C2/C(=O)N(C)C3(C)CC2c2ccccc2O3)cc1 (stereo unspecified)	-18%
68	CC1(C)CC(=O)C2=C(C1)NC(=O)CC2c1ccc(F)cc1 (stereo unspecified)	-8%
69	CCOC(=O)c1ccc(Nc2cc(C)nc(C)c2C(=O)OCC)cc1	-5%
70	N#CC1=C2C=Cc3ccccc3N2CCCC1=O	-22%
71	CC(C)NC(=S)N/N=C/c1c[nH]c2ccccc12	-8%
72	CCc1ccc(C(=O)N2CCN(c3ccc(F)cc3)CC2)s1	-4%
73	CC(=O)c1cnc2cc(C)nn2c1C	-9%
74	CCC1=C2CC[C@H]3C(=O)N(CC(=O)OC)C(=O)[C@H]3[C@H]2[C@@]2(C)C(=O)N(Cc3ccccc3)C(=O)N2C1=O	-2%
75	CC(C)CC(c1nnnn1CCc1ccccc1)N1CCC(C(N)=O)CC1 (stereo unspecified)	1%
76	O=S(=O)(Nc1ccc2c(c1)OCCO2)c1ccc2oc3ccccc3c2c1	28µM*
77	Oc1ccc(-c2nc3ncccn3c2Nc2ccc3c(c2)OCO3)cc1	-7%
78	Clc1ccc(-c2nc3ccccc3n2OCc2ccccc2)cc1	33%[activator]
79	COc1ccc(S(=O)(=O)N2CCC(C(N)=O)CC2)c2ccccc12	-9%
80	Cc1ccc(-n2nnnc2SCc2ccccn2)cc1C	-5%
81	Cc1cc(NC(=O)/C=C/c2cccc(Cl)c2)n(-c2nc3ccccc3[nH]2)n1	?
82	O=C(NCCN1CCCCC1)c1c(O)c2ccccc2[nH]c1=O	-18%
83	CCOCCCn1c(SCC(=O)Nc2ccc(C(N)=O)cc2)nc2ccccc2c1=O	-29%
84	COc1c(Cl)cc(Cl)cc1CNCCNCC(C)O (stereo unspecified)	-2%
85	CCN(CC)c1ccc(C2C(C(=O)OCCOC)=C(C)NC3=C2C(=O)CCC3)cc1 (stereo unspecified)	-10%
86	COC(=O)c1ccc(C(NC(=O)OCc2ccccc2)/C(I)=C/[C@@H](C)C(=O)NCc2ccc(OC)c(O)c2)cc1 (stereo partly specified)	-6%
87	CCC1CCCCN1C(=O)Nc1cccc(NC(=O)N2CCCCC2CC)c1 (stereo unspecified)	-9%
88	Cc1csc(NC(=O)Nc2cccc(Cl)c2)n1	-15%
89	CCC(C)Sc1nc2ccccc2c(=O)[nH]1 (stereo unspecified)	-21%
90	COc1ccc(S(=O)(=O)N(CC(=O)NCc2cccnc2)c2ccc(F)cc2)cc1OC	2%

Some of the entries so far, with the structure last:
| # | HPGD inh | Molecule |
| --- | --- | --- |
| 85 | -10% | CCN(CC)c1ccc(C2C(C(=O)OCCOC)=C(C)NC3=C2C(=O)CCC3)cc1 (stereo unspecified) |
| 82 | -18% | O=C(NCCN1CCCCC1)c1c(O)c2ccccc2[nH]c1=O |
| 83 | -29% | CCOCCCn1c(SCC(=O)Nc2ccc(C(N)=O)cc2)nc2ccccc2c1=O |
| 79 | -9% | COc1ccc(S(=O)(=O)N2CCC(C(N)=O)CC2)c2ccccc12 |
| 87 | -9% | CCC1CCCCN1C(=O)Nc1cccc(NC(=O)N2CCCCC2CC)c1 (stereo unspecified) |

Carrying on:
nr	SMILES	HPGD inh
91	COC/C=C/C1=CC2=CC(=O)C(C)(OC(=O)c3cccs3)C(=O)C2=CO1 (stereo unspecified)	0%
92	O=C(Cn1c(=O)sc2ccccc21)OC(CCl)CCl	-16%
93	COc1ccc(-c2cn3cccc(C)c3n2)cc1Br	-17%
94	Cc1cc(C)n2cc(CSc3nc4ccccc4s3)nc2n1	?
95	Cc1ccc(NC(=O)Cc2ccc3c(c2)CCCC3)cc1C	-21%
96	Cc1cc(C(=O)N/N=C/c2cccc([N+](=O)[O-])c2)c(C)o1	0%
97	COc1ccc(-c2[nH]c(-c3ccccc3)nc2SCC(=O)NC2CCCC2)cc1	?
98	COc1ccccc1CN1C(=O)CN(C2CCCCCC2)C(=O)C1c1ccc(F)cc1 (stereo unspecified)	-4%
99	COC(=O)c1ccccc1NC(=S)NC(=O)COc1ccc(C(C)C)cc1	-14%
100	O=C1c2ccccc2-c2nccnc21	-15%
101	COc1ccc(CCNC(=S)Nc2ccc(OC)cc2)cc1	-24%
102	CC(C)[C@@H](CC(=O)N[C@@H]1CCNC[C@H]1C(=O)N[C@H](CC(=O)N[C@@H](CCC(=O)O)CC(=O)O)Cc1c[nH]c2ccccc12)NC(=O)C[C@H](CO)NC(=O)[C@@H]1CCCC[C@H]1N	-16%
103	COC(=O)c1ccc(C(C(=O)NCc2ccccc2)N(Cc2cccs2)C(=O)c2cnccn2)cc1 (stereo unspecified)	1%
104	OC(CNCC(c1ccco1)N1CCCCC1)c1ccccc1 (stereo unspecified)	2%
105	O=C(c1ccco1)N1CCN(c2ccccc2F)CC1	-27%
106	CNCCCCCCCCSc1nc(C(C)C)ccc1C(=O)c1cccs1	-1%
107	Cn1c(=O)c2c(nc(CN3CCN(Cc4ccccc4)CC3)n2Cc2ccc(F)cc2)n(C)c1=O	-2%
108	Cc1sc(NC(=O)Cc2ccc3c(c2)OCO3)nc1-c1ccc2c(c1)CCN2C(=O)c1ccc(F)cc1	-2%
109	Cc1ccccc1C(=O)Nc1sc(C)c(C)c1C(=O)c1ccccc1	32µM*
110	CCc1ccccc1NC(=O)c1ccc(CN2CCC(Cc3ccccc3)CC2)cc1	-16%
111	Cc1ccc(OCC(=O)N(C)CCc2ccccn2)cc1	4%
112	COc1ccc(-n2c(C)cc(C=O)c2C)cc1Cl	18µM*
113	c1ccn(-c2ncnc3sc4c(c23)CCCC4)c1	-12%
114	Cc1noc(C)c1C(=O)OCC(=O)c1c(N)n(CC(C)C)c(=O)n(C)c1=O	-9%

Compounds shown so far containing a thiophene ring, fused or not:
nr	SMILES	HPGD inh
62	COCCCNC(=O)c1c(N)n(/N=C/c2cccs2)c2nc3ccccc3nc12	?
72	CCc1ccc(C(=O)N2CCN(c3ccc(F)cc3)CC2)s1	-4%
91	COC/C=C/C1=CC2=CC(=O)C(C)(OC(=O)c3cccs3)C(=O)C2=CO1 (stereo unspecified)	0%
103	COC(=O)c1ccc(C(C(=O)NCc2ccccc2)N(Cc2cccs2)C(=O)c2cnccn2)cc1 (stereo unspecified)	1%
106	CNCCCCCCCCSc1nc(C(C)C)ccc1C(=O)c1cccs1	-1%
109	Cc1ccccc1C(=O)Nc1sc(C)c(C)c1C(=O)c1ccccc1	32µM*
113	c1ccn(-c2ncnc3sc4c(c23)CCCC4)c1	-12%
